Compound activity (PubChem)
Methyltransferases = Primary Screen for Target Class Profiling of Small Molecule Inhibitors of Methyltransferases; purified enzyme, MTase-Glo SAH luminescence; hits give low values; calls only at 40 µM; actives 3.9% (n = 25,000); active = -50% or lower on at least one of six enzymes; inconclusive = the cases between; inactive = as a rule above -30% on all six;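 also: enzymes were COMT GAMT GNMT HNMT NNMT and PNMT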
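Each enzyme was assayed with SAM and its substrate. SAH formation detected by MTase-Glo luminescence; single-point 40 uM screen[…].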
Calls only; i = inactive; ? = inconclusive; + = active, no number. % is scaled to controls: 0 for no effect and ±100 for the full control effect. Some of the compounds tested; rates above refer to the full screens.

SMILES | Methyltransferases
CCCn1c(=O)c2ccc(C(=O)NC(C)C)cc2n2c(SCc3ccc(N4CCCC4=O)cc3)nnc12 | i
O=C(CCc1conc1-c1ccccc1F)NCc1cccc(C(F)(F)F)c1 | i
Cc1cn2nc(C(=O)Nc3ccc4c(c3)OCCO4)cc2c(N(C)Cc2ccccc2)n1 | i
CC1(C(=O)NC2CCCC2)Cn2c(ccc2-c2ccccc2)C(=O)N1Cc1cccs1 (centres undefined) | i
CC(C)CNC(=O)c1cc(-c2ccsc2)nc2c1cnn2C | ?
NC(=O)C1CCN(c2cc(-c3noc([C@@H]4CCCN4Cc4ccc(Cl)cc4)n3)ccn2)CC1 | i
CC(C)=CCC/C(C)=C/CCC1(C)Oc2c(c(O)cc3c2CN(C(CCC(=O)O)C(=O)O)C3=O)CC1O (centres undefined) | i
Cc1nc(-c2ccc(F)cc2)n(Cc2ccc(F)c(F)c2)c(=O)c1CCO | i
Cc1ccc(CNC(=O)C2(C)Cn3nc(C(=O)NCCC(C)C)cc3C(=O)N2C)cc1 (centres undefined) | i
COc1ccc(CNC(=O)C2(C)Cn3cnc(C(=O)NC4CCCCC4)c3C(=O)N2C2CC2)cc1 (centres undefined) | i
CCNC(=O)N1C[C@H]2OC(=O)N(Cc3ccc(OC)c(OC)c3)[C@H]2C1 | i
CC1CCC2(C(=O)O)CCC3(C)C(=CCC4C5(C)CCC(O)C(C)(CO)C5CCC43C)C2C1(C)O (centres undefined) | i
COC1CC(O[C@H]2CC[C@@]3(C)C(=CC[C@]4(O)C3[C@H](O)[C@@H](O)[C@]3(C)[C@@H]([C@H](C)O)CC[C@@]34O)C2)OC(C)C1OC1CC(OC)C(OC2CC(OC)C(OC3OC(C)C(OC4OC(CO)C(O)C(O)C4O)C(OC)C3O)C(C)O2)C(C)O1 (some centres undefined) | i
O=C(c1ccoc1)N1CCC(Nc2cccnc2)C1 (centres undefined) | ?
CN(CC(=O)N1CCCC1)S(=O)(=O)c1ccc2[nH]c3c(c2c1)CCCC3 | i
Nc1nc(C2CC(O)C2)cc(N2CC(N3CCOCC3)C2)n1 (centres undefined) | i
CCCC1c2cccn2CCN1C(=O)Nc1ccccc1CC (centres undefined) | i
COCCN1C(=O)c2nc3ccccc3n2CC1(C)C(=O)NC1CCCCCC1 (centres undefined) | i
CCCN1C(=O)c2c(C(=O)NCc3ccc(OC(C)C)cc3)ncn2CC1(C)C(=O)NC1CCCC1 (centres undefined) | i
CC1(C(=O)NC2CCCCC2)Cn2c(nc3ccccc32)C(=O)N1Cc1ccc(Cl)cc1 (centres undefined) | i
Cc1cc2c(cc3n2CC(C)(C(=O)NC2CCCCC2)N(CCCc2ccccc2)C3=O)o1 (centres undefined) | i
c1ccc(CN2CCC[C@H]2c2nc(-c3ccnc(N4CCOCC4)c3)no2)nc1 | i
CC(C)NC(=O)N1CCOc2ccc(CCC(=O)NCCc3cccnc3)cc2C1 | i
CC(C)CCn1c(=O)c2ccccc2n2c(=O)n(CC(=O)Nc3ccc4c(c3)OCCO4)nc12 | i
Cc1cc(N2CCOCC2)ccc1Nc1nc(NC2CCCCC2)c2[nH]cnc2n1 | +
CC1CCC(NC(=O)C2(C)Cn3c(nc4ccccc43)C(=O)N2CCc2ccc(Cl)cc2)CC1 (centres undefined) | i
O=C(c1ccc2c(=O)nc3c(-c4ccccc4)n[nH]n3c2c1)N1CCN(c2ccccc2)CC1 | i
Cn1nccc1C(=O)NC1CCCN(c2cc(N3CCCC3)ncn2)C1 (centres undefined) | i
CCOC(=O)CNC(=O)[C@@H]1CCCN1C(=O)Cc1ccccc1 | i
C=C1C(=O)OC2/C=C(\CO)CC/C=C(\C=O)C(OC)C(OC(=O)C(C)CC)C12 (centres undefined) | +
CN(C)C[C@@H]1CN(C2CCOCC2)C[C@H]1NC(=O)c1cc2ccccc2[nH]1 | i
Cc1ccc(-c2cc3n(n2)CCCN(C(=O)c2cc(CN4CCOCC4)on2)C3)o1 | i
CC(C)COC(=O)c1ccc2c(c1)C1C=CCC1C(c1ccc(Cl)cc1)N2 (centres undefined) | i
Cc1cccc(C(=O)N2CCC(c3nc(-c4cccn4C)no3)C2)c1 (centres undefined) | i
Cc1ccc(Cl)cc1N1CCN(CCNC(=O)CCc2nnc3n(C)c(=O)c4ccccc4n23)CC1 | i
CC1(C)NC2N(C1=O)c1ccccc1C2(O)CC(C(=O)O)n1cnc2ccccc2c1=O (centres undefined) | i
CC1=CC(=O)C2(OC3OC(C)C(O)C(OC(=O)/C=C/c4ccccc4)C3O)C=COC(OC3OC(CO)C(O)C(O)C3O)C12 (centres undefined) | +
CCC(C)NC(=O)Cn1nc2n(C3CC3)c(=O)c3ccc(C(=O)NC(C)CC)cc3n2c1=O (centres undefined) | i
Cc1ccc(N2C(=O)c3cc(C4CC4)nn3CC2(C)C(=O)NC2CCCCCC2)cc1Cl (centres undefined) | i
CCCS(=O)(=O)N1CC[C@H]2NC(=O)N(c3ccc(F)cc3)C(=O)[C@H]21 | i
COc1ccc(OC)c(S(=O)(=O)N2CCC3(CC2)CC(CC(=O)N(C)C)CCO3)c1 (centres undefined) | i
Cn1c(=O)c2ccc(C(=O)NC3CCCCC3)cc2n2c(=O)n(CC(=O)NCc3ccc(F)cc3)nc12 | i
CCC(c1cccs1)N1C(=O)[C@H]2CN(S(=O)(=O)c3ccccc3F)C[C@H]2C1=O (some centres undefined) | i
NC1(C(=O)O)CCCCC1 | i
CCOC(=O)Cc1c(-c2ccccc2)c2cc(Br)ccc2[nH]c1=O | i
CC(=O)O[C@@H]1C[C@@H](OC(C)=O)C(C)(C)/C=C/[C@H](C)[C@H](OC(C)=O)[C@@]2(O)C[C@H](C)[C@H](OC(=O)c3ccccc3)[C@@H]2/C=C/1C | i
CN(C1CCCc2ccccc21)S(=O)(=O)c1cccc(C(F)(F)F)c1 (centres undefined) | i
CCCn1c(=O)c2ccc(C(=O)NCC(C)C)cc2n2c(=O)n(CC(=O)Nc3ccccc3C)nc12 | i
CN1C(=O)C(c2ccccc2)CC12CCN(C(=O)c1ccc(F)cc1)CC2 (centres undefined) | i
CCCn1c(=O)c2ccc(C(=O)NCC(C)C)cc2n2c(=O)n(CC(=O)NC3CCCCC3)nc12 | i

In another format: three of the compounds above.
CN(C1CCCc2ccccc21)S(=O)(=O)c1cccc(C(F)(F)F)c1 (centres undefined)
  Methyltransferases = i

NC1(C(=O)O)CCCCC1
  Methyltransferases = i

COc1ccc(OC)c(S(=O)(=O)N2CCC3(CC2)CC(CC(=O)N(C)C)CCO3)c1 (centres undefined)
  Methyltransferases = i

Next part.
SMILES | Methyltransferases
C=C1CC[C@@H](O)[C@]2(C)CC[C@H]3C(=C)C(=O)O[C@@H]3[C@@H]12 | i
Cc1cnc(C(=O)N2CCCCCNC(=O)[C@@H]3CCC[C@@H]32)cn1 | i
CCN1C(=O)c2cc(C(=O)NCc3ccc(N(C)C)cc3)nn2CC1(C)C(=O)NC1CCCC1 (centres undefined) | i
CN1C(=O)C(CC(=O)N2CC(O)C2)(Cc2ccccc2)c2ccccc21 (centres undefined) | i
CCN1CCN(C(=O)C2CCc3nnc(-c4cccc(C(F)(F)F)c4)n32)CC1 (centres undefined) | i
COc1cc(NC(=O)Cn2nc3n(Cc4ccccc4)c(=O)c4ccccc4n3c2=O)cc(OC)c1 | i
COc1ccc(N2CCN(CCCNC(=O)Cn3c(=O)c4cccn4c4c(C)ccnc43)CC2)cc1 | i
O=C(Nc1ccccc1F)N1CC(Oc2ccc(-c3noc(-c4ccccc4)n3)cc2)C1 | i
Cn1ncc2c(NCCc3nnc(N)s3)nc(-c3ccncc3)nc21 | i
CCN1C(=O)c2cc(C(=O)N3CCN(c4cc(Cl)ccc4C)CC3)nn2CC1(C)C(=O)NC1CCCC1 (centres undefined) | i
CCC1c2ccc(C)n2CCN1C(=O)NCc1ccccc1 (centres undefined) | i
CC(C)(C)c1nn2c(SCC(=O)Nc3ccccc3Cl)nnc2[nH]c1=O | i
CC(C)c1cc(C(=O)N2Cc3ccc(CN4CCN(C)CC4)cc3C2)c(O)cc1O | ?
COC(=O)c1ccc(OC)cc1O[C@@H]1O[C@H](CO[C@@H]2OC[C@@H](O)[C@H](O)[C@H]2O)[C@@H](O)[C@H](O)[C@H]1O | i
O=C(OC(C(F)(F)F)C(F)(F)F)N1CCN(Cc2cccc(Oc3ccccc3)c2)CC1 | i
CCN(CCn1cccn1)Cc1ccccc1OCC(O)CN1CCCCC1 (centres undefined) | i
Cc1ccc(CN2CC(N(CC3CC3)C3CCOCC3)C2)cc1 | i
CN1CCN(C[C@@H]2CN(C(=O)CCCc3cccs3)C[C@@H]2CO)CC1 | i
CCC(C(=O)NCc1ccc(F)cc1)n1ccc2cc(S(=O)(=O)N3CCCCC3)ccc21 (centres undefined) | i
CN1C(=O)c2cc(C(=O)N3CCN(c4ccccc4)CC3)nn2CC1(C)C(=O)NC1CCCCCC1 (centres undefined) | i

Reformatted: 7 of the compounds above.
canonical_smiles	Methyltransferases
Cc1ccc(CN2CC(N(CC3CC3)C3CCOCC3)C2)cc1	i
CCC1c2ccc(C)n2CCN1C(=O)NCc1ccccc1 (centres undefined)	i
COC(=O)c1ccc(OC)cc1O[C@@H]1O[C@H](CO[C@@H]2OC[C@@H](O)[C@H](O)[C@H]2O)[C@@H](O)[C@H](O)[C@H]1O	i
CN1C(=O)c2cc(C(=O)N3CCN(c4ccccc4)CC3)nn2CC1(C)C(=O)NC1CCCCCC1 (centres undefined)	i
CC(C)c1cc(C(=O)N2Cc3ccc(CN4CCN(C)CC4)cc3C2)c(O)cc1O	?
O=C(OC(C(F)(F)F)C(F)(F)F)N1CCN(Cc2cccc(Oc3ccccc3)c2)CC1	i
CN1CCN(C[C@@H]2CN(C(=O)CCCc3cccs3)C[C@@H]2CO)CC1	i

Next results.
SMILES | Methyltransferases
C=C1/C(=C\C=C2/CCC[C@@]3(C)C2CC[C@@H]3[C@H](C)/C=C\[C@@H](O)C2CC2)C[C@@H](O)C[C@@H]1O (some centres undefined) | ?
CCOc1ccc(CNC(=O)c2cc3n(n2)CC(C)(C(=O)NCc2ccc(C)cc2)N(C)C3=O)cc1 (centres undefined) | i
Nc1nc2c(nc(Br)n2[C@@H]2O[C@@H]3COP(=O)(O)O[C@H]3[C@H]2O)c(=O)[nH]1 | i
COC[C@@H]1CN(S(=O)(=O)c2c(C)noc2C)C[C@H]1c1ccncc1 | i
CC(C)C1c2cccn2CCN1C(=O)Nc1cccc(C(F)(F)F)c1 (centres undefined) | i
COc1ccc(-c2cc3n(n2)CC(C)(C(=O)NCc2ccccc2OC)N(c2ccc(F)cc2C)C3=O)cc1 (centres undefined) | i
CCCCN(CC)CCN1C(=O)c2cc3sc(CC)cc3n2CC1(C)C(=O)NC1CCCCC1 (centres undefined) | i
O=C1Nc2ccc(O)cc2O[C@H]1O[C@@H]1O[C@H](CO)[C@@H](O)[C@H](O)[C@H]1O | i
CC(C)n1c(=O)c2ccc(C(=O)NC3CCCCC3)cc2n2c(=O)n(Cc3ccccc3F)nc12 | i
COc1ccc(CNC(=O)C(C)n2ccc3cc(S(=O)(=O)N4CCCCC4)ccc32)cc1OC (centres undefined) | i
CCn1c(=O)c2cc(C(N)=O)c(N)nc2n(C2CC2)c1=O | ?
O=C(CCc1nnc2n(Cc3ccccc3Cl)c(=O)c3ccccc3n12)Nc1ccccc1 | i
CCOC(=O)c1cc2n(n1)CC(C)(C(=O)NC1CCCCCC1)N(c1ccc(CC)cc1)C2=O (centres undefined) | i
COC(=O)C1(Cc2ccc(O)cc2)OC(=O)C(OC)=C1c1ccc(O)cc1 (centres undefined) | i
CC[C@@]1(C(=O)O)C[C@H](C(=O)N(C)CCCO)[C@H](c2ccc(OC)cc2)N1C | i
O=C(O)C[C@@H]1CCN(S(=O)(=O)c2ccccc2)C[C@@H]1CCN(CCN1CCOCC1)c1ccccc1 | i
N#Cc1cccc(N2CCN(Cc3ccc(F)c(Cl)c3F)CC2)n1 | i
CC1(C(=O)NC2CCCCC2)Cn2c(ccc2-c2ccccc2)C(=O)N1Cc1cccs1 (centres undefined) | i
COc1ccc([C@H]2C[C@@H](O)[C@@H](O)[C@@H]2NC(=O)c2ccccn2)cc1 | i
COC(=O)c1ncn2c1C(=O)N(Cc1ccccc1Cl)C(C)(C(=O)NC1CCCCCC1)C2 (centres undefined) | i
NC(=O)c1cc2c(nc1CCC1COc3ccccc3O1)CCC2 (centres undefined) | i
CCC(C)NC(=O)c1ccc2c(=O)n(CC(C)C)c3nn(CC(=O)Nc4ccc(C)c(C)c4)c(=O)n3c2c1 (centres undefined) | i
O=C(O)c1ccnc(-c2ccnc(NCCN3CCCCC3CO)n2)c1 (centres undefined) | i
CC1(c2ccccc2)N(Cc2cccnc2)C(=O)OC12CCN(C(=O)Cc1ccc(Cl)cc1)CC2 (centres undefined) | i
CC(C)CC(=O)N1CCN(c2nnc3ccc(C(F)(F)F)cn23)CC1 | i
COc1ccc(C2(C(=O)N3C[C@@H](CO)[C@H](c4ccccn4)C3)CC2)cc1 | i
CC[C@H](C)[C@H]1O[C@]2(CC[C@@H]1C)C[C@@H]1C[C@@H](C/C=C(\C)[C@@H](O[C@H]3C[C@H](OC)[C@@H](O[C@H]4C[C@H](OC)[C@@H](O)[C@H](C)O4)[C@H](C)O3)[C@@H](C)/C=C/C=C3\CO[C@@H]4[C@H](O)C(C)=C[C@@H](C(=O)O1)[C@]34O)O2 | ?
Cc1cccc(NC(=O)N2Cc3c(sc4c3CCCC4)-n3cccc3C2c2cccc(F)c2)c1 (centres undefined) | i
CCOC(=O)CCNC(=O)N1CCCC(c2nc(C(C)C)no2)CCNC(=O)CC1 (centres undefined) | i
O=C(C1CCCN1[S+](=O)([O-])c1cccs1)N1CCC(N2CCOCC2=O)CC1 (centres undefined) | i
